# TRPV1 PAM: human TRPV1 potentiation | Q8NER1 | TRPV1-expressing cells, Fluo-8 calcium influx, capsaicin EC20 potentiation; host cell line not named in the record; control for the full effect not named in the record | potentiation, % at 8.33 µM | 320,000 compounds, 0.02% hits | AID 540277; active means potentiation above 80%; inconclusive means 30% to 80%; inactive means below 30%; also: 0% is about no effect
#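 Fluo-8 calcium influx in TRPV1-expressing cells, kinetic read (ex 480/em 520 nm). Compound added and read 3 min for agonist activity, followed by capsaicin at EC20 final and 2 min further read for enhancement.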
# gsp antagonist: antagonizes gsp, the McCune-Albright syndrome mutation; gsp-mutant cells, cAMP HTRF, 30 min; control for the full effect not named in the record; Potency, µM (series often up to 76.9 µM), for inactives: top-dose activity change, negative = inhibition, actives largely listed as inhibitors; 340,000 compounds, 0.4% hits; active = falling curve of any shape with a large fitted effect; inconclusive = falling curve, mostly with a smaller effect; inactive = flat or rising curve; cell line not stated here;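 also: intracellular cAMP measured with PDE inhibitor Ro 20-1724 present during compound exposure; potency is read from the fitted curve at half-maximal effect; % is scaled to controls: 0 for no effect and ±100 for the full control effect; nearly all actives have a fitted effect of over 65% in size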
#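 Cells, 2000/well, grown 16–24 h in DMEM 10% FBS with 0.5 mg/ml G418, then compounds plus […] (300 uM addition stock), 30 min at 37C. cAMP read by HTRF (cAMP-d2 and anti-cAMP antibody-K in lysis buffer) after 30 min RT.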
# Menin MLL FP FL: inhibitors of human menin-MLL interaction, wild-type MLL peptide | Fluorescence polarization, fluorescein-MLL peptide displacement from menin | FP activity change, % at 61.4 µM | 290,000 tested, under 10 active | AID 1766; inconclusive = falling polarisation curve, or a change in total fluorescence; inactive = total fluorescence flat and polarisation flat or rising; no compound was filed as active; the % refers to the polarisation; negative = inhibition;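 also: % of control where 0% means no effect; inhibitors lower the polarisation; unlabelled MLL peptide was the positive control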
# ClpP mod: qHTS Assay for Activators of ClpP; ATP-dependent Clp protease proteolytic subunit (Bacillus subtilis (strain 168)), P80244; purified B. subtilis ClpP, FRET peptide cleavage, 20 min; Potency, µM (highest dose often 57.5 µM), for inactives: at the highest dose activity change, negative = active; 340,000 compounds, 1.9% hits; AID 651965, 2013; active = well fitted falling curve with a large enough effect; inconclusive = small, poorly fitted or top-dose-only effect; inactive = no such curve, though single readings can be large or run the other way; also: potency is read from the fitted curve at half-maximal effect; the source files actives as falling curves though it sought activators and does not explain the sign; nearly all actives have a fitted effect of over 65% in size; many hits overshoot -100%
# Target sequence (P80244 whole entry, looked up): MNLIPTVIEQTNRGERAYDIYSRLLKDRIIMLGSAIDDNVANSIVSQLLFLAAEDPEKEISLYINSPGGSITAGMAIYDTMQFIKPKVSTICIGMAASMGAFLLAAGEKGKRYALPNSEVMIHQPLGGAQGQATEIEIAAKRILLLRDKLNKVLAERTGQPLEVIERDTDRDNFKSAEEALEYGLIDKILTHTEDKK
#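 Purified B. subtilis ClpP, 10 microg/mL final in Tris/HCl pH8 with KCl, BSA, glycerol and Tween-20, cleaved an Abz/nitrotyrosine-quenched decapeptide. Fluorescence (ex 320, em 430) was read at 0 and 20 min at room temperature. Delta was normalized to 5.8 microM ADEP and DMSO/no-enzyme controls.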
# gsp agonist: agonists of gsp mutant (McCune-Albright syndrome); gsp mutant cells, cAMP HTRF, 30 min; control for the full effect not named in the record; Potency, µM (titrated, usually from 76.9 µM), inactives show at the top dose activation (cAMP increase), usual class: activators; 340,000 compounds, 0.13% hits; active = well fitted activation curve with a large enough effect; inconclusive = small, poorly fitted or top-dose-only effect, or another doubt; inactive = no such curve, though single readings can be large or run the other way; cell line not stated here;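 also: phosphodiesterase inhibitor Ro 20-1724 added with compounds to block cAMP breakdown; potency is read from the fitted curve at half-maximal effect; nearly all actives have a fitted effect of over 60% in size; about a fifth of the inactives were tested at one dose only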
#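 Cells stably selected in G418 were plated at 2000/well, grown 16-24 hr, then given compounds in DMSO with the PDE inhibitor […] (300 uM solution added) for 30 min at 37C; cAMP was read by HTRF.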
# Sfp PPTase inh: blocks B. subtilis Sfp PPTase activity; Q9F4F7; Biochemical Sfp PPTase activity, qHTS; Potency, µM, without a hit: max response, negative = inhibition, usual class: inhibitors; 310,000 compounds, 3.5% hits; active = well fitted inhibition curve with a large enough effect; inconclusive = small, poorly fitted or top-dose-only effect, or another doubt; inactive = no such curve, though single readings can be large or run the other way;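 also: the enzyme is Sfp with the accession as filed and its product quenches rhodamine fluorescence; potency is read from the fitted curve at half-maximal effect; 0% = enzyme reaction without inhibitor and -100% = no enzyme wells; top concentration of the series not given in the record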
#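 Reaction rates are the 30-min fluorescence difference (ex 525, em 598 nm) in wells containing 15 nM Sfp, 5 uM rhodamine-CoA and 12.5 uM BHQ-2-YbbR at pH 7.6 with 10 mM MgCl2.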
# TRPML1 blocker: human mucolipin-1 channel inhibition | activity change, negative = inhibition, % (concentration not given with the values) | 390,000 compounds, 0.02% hits | Q9GZU1 | TRPML1-inducible cells, Ca2+ dye fluorescence, FDSS; hits give low values; inhibition of EC80 agonist-evoked calcium signal; in the data active means activity change below about -50%; inconclusive means about -30% to -50%; inactive means above about -30%;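 also: stimulus is agonist 54-4 at its EC80 concentration; % is scaled to controls: 0 for no effect and ±100 for the full control effect; the text of the record puts the active cut at -80%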
# Target sequence (Q9GZU1 whole entry, looked up): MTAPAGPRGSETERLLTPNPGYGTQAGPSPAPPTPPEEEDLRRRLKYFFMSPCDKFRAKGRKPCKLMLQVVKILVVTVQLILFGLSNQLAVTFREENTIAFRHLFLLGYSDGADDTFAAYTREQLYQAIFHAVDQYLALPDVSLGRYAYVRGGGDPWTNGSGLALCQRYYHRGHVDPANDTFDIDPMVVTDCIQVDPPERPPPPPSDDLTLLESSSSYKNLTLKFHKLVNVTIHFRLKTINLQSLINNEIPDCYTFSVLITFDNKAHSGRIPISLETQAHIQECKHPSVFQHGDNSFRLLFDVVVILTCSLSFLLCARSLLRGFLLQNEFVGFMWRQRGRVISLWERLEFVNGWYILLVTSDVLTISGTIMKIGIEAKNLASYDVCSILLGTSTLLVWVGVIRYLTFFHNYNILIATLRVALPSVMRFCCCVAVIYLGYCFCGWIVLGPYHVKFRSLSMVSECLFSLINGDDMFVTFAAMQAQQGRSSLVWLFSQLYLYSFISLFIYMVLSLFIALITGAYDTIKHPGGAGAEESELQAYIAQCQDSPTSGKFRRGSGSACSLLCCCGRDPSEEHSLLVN
#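 TRPML1-DL cells, Tet-induced overnight (~16 h, 37 °C) at 1,500 cells/well, were loaded with Ca8 no-wash dye plus quencher for 45-90 min at room temperature. Compounds were pinned during FDSS kinetic reading; agonist 54-4 at EC80 (4 uM final) then added.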
# Starred values were filed as active, the others as inactive; ? = inconclusive; . = no result given; & = joins results of further samples; [ ] = another dose, or the depositor's remark.
SMILES,TRPV1 PAM,gsp antagonist,Menin MLL FP FL,ClpP mod,gsp agonist,Sfp PPTase inh,TRPML1 blocker
COC(=O)c1cc(S(=O)(=O)N2CCN(c3cccc(Cl)c3)CC2)c[nH]1,-22.8,5.8%,3.0,0.3%,-28.4%,16.2%,7.9
COc1ccc(NC(=O)N(C)C[C@H]2Oc3ccc(NC(=O)CCN4CCOCC4)cc3C(=O)N([C@@H](C)CO)C[C@H]2C)cc1,.,11.4%,.,-3.5%,?,.,13.4
COc1ccc(S(=O)(=O)Nc2ccc3oc(C)c(C(=O)O)c3c2)cc1,2.2,3.7%,0.3,-2.1%,-3.5%,-7.4%,12.4
CCN(CC1CCCN(CCc2cccc(F)c2)C1)C(=O)c1cc(C)oc1C (stereo not given),-9.4,-6.2%,.,0.2%,-4.7%,15.3%,4.9
Cc1ccccc1-c1nc2sc(C)c(C)c2c(=O)o1,-0.5,-10.3%,2.5,1.2%,-41.4%[inhibitor],-5.1%,-11.8
CNCCCOc1ccc(Cl)cc1C(C)(C)C,5.9,21.1%,-1.2,.,16.5%,?,0.4
COc1cc(C(=O)O)ccc1OCC(=O)N1CCOCC1,4.8,3.0%,-5.5,-1.5%,21.7%,18.7%,-6.2
O=C(Cn1ncc2c3ccccc3n(Cc3ccccc3)c2c1=O)N1CCN(c2ccccn2)CC1,-14.9,-12.2%,-2.1,?,6.4%,-3.7%,11.7
S=c1[nH]nc(-c2ccco2)n1-c1ccccc1Cl,2.7,-20.7%,1.3,.,15.3%[15.4 µM],-7.3%,-9.6
COC(=O)c1ccc(OC)c(CSc2nnc(COc3ccccc3)o2)c1,-1.3,-24.3%,2.5,-0.3%,-2.0%,-1.0%,10.2
O=C1CCCC/C1=C/NCc1ccccc1,1.2,5.6%,3.6,.,-4.3%[15.4 µM],8.7%,-13.8
Cc1ccccc1N(CC(=O)NC1CCCCC1)C(=O)CNC(=O)c1cccs1,?,.,?,.,-2.7%[15.4 µM],9.8%,12.9
CN1CCN(Cc2nc3c(c(=O)n(C)c(=O)n3C)n2Cc2cccc3ccccc23)CC1,?,6.2%,1.1,0.9%,-0.6%,11.3%,-1.6
COc1ccsc1C(=O)Nc1ccc(F)cc1F,1.6,-19.7%,3.0,.,-1.6%[15.4 µM],17.3%,-3.9
CC(=O)N1CCCN(Cc2cn(-c3ccc(C)cc3)nc2-c2cccc(C)c2)CC1,-9.9,-21.8%,1.8,-3.7%,-1.2%,?,6.3
O=C(Nc1ccc(S(=O)(=O)Nc2nccs2)cc1)C(F)(F)F,.,10.4%,.,.,2.7%[15.4 µM],.,-4.2
COC(=O)c1ccc(NC(=O)N(c2ccccc2)c2ccccc2)cc1,-7.4,12.1%,3.4,-0.2%,-23.0%,2.6%,-8.8
Cc1ccc(NC(=O)Cn2nnc3ccccc3c2=O)cc1C,4.8,0.1%,0.1,.,15.7%[15.4 µM],7.7%,11.0
O=C(NCc1cccc2ccccc12)c1cccs1,-5.6,1.9%,.,-0.4%,.,.,-4.5
Cc1cccc(/C(N)=N/OC(=O)c2cccs2)c1,-3.5,-9.3%,2.7,-0.8%,4.7%,2.2%,-11.3
O=C(O)Cc1sc(Nc2cccc3ccccc23)nc1-c1ccccc1,15.4,-25.3%,.,-25.6%,13.5%,.,8.1
C[C@H](NC(=O)OCc1ccccc1)c1nnc([C@H](C)NC(=O)OCc2ccccc2)o1,-13.7,4.2%,3.3,0.8%,4.0%,4.7%,-20.5
CC(C)(C)c1ccc(C(=O)NN=C2CCCC2)cc1,-20.1,20.4%,3.2,-0.1%,3.6%[15.4 µM],14.7%,19.2
CCNC(=O)c1cc2c(=O)n3cccc(C)c3nc2n(CCc2ccccc2)c1=N,-0.3,15.2%,-3.9,?,-2.2%,0.6%,-8.1
Cn1c(=O)c2c(nc(SCc3nn[nH]n3)n2Cc2ccccc2F)n(C)c1=O,11.5,5.6%[15.4 µM],-9.2,-7.6%,-2.9%,-10.2%,-2.6
CCSc1nnc(NC(=O)[C@H](C)NC(=O)c2ccccc2Cl)s1,10.3,-3.3%,0.2,.,-16.7%[15.4 µM],14.2%,-8.0
CCCNC(=O)C1CC(=O)N(c2ccc(OCc3ccc(F)cc3)cc2)C1 (stereo not given),-10.5,-13.7%,-1.8,-1.3%,-21.0%,-0.4%,-8.3
Cc1ccc(CNC(=O)C(NS(=O)(=O)c2cccc3nsnc23)c2ccccc2)cc1 (stereo not given),9.4,-10.6%,3.5,-3.4%,2.1%[15.4 µM],1.1%,6.8
Cc1ccc2c(c1)nc(-n1nc(C)cc1C)c1nnnn12,1.3,-13.3%,2.0,-1.3%,9.6%,16.8%,14.6
CC(=O)Nc1ccc(N/C=C(\C#N)S(=O)(=O)c2ccc(Cl)cc2)cc1,3.4,8.3%,-0.7,-11.7%,16.8%,21.0%,5.0
CCOc1ncccc1C(=O)OCCN1C(=O)c2ccccc2C1=O,-0.8,-0.1%,-2.4,-0.2%,14.4%,13.1%,3.4
CC(C)(C)C1CCC(C(=O)OCC(=O)c2ccc[nH]2)CC1 (stereo not given),-7.5,2.9%,2.2,-1.7%,20.6%[15.4 µM],41.4%[activator],-13.3
Cc1cc(C)c(OCCCCN(C)C)c(Br)c1,6.5,23.9%,0.0,0.3%,-2.0%[15.4 µM],-26.4%,5.1
Cc1ccc(C)c(N2N=C(C(=O)OCc3nnc(-c4ccccc4)o3)CCC2=O)c1,12.5,-11.5%,.,-2.0%,-18.3%,.,4.5
CCC(C)C(NC=C1C(=O)OC(C)(C)OC1=O)C(=O)O (stereo not given),-4.9,14.4%,-0.4,-11.4%,-48.4%[inhibitor],10.5%,11.1
CCC1CN(C(=O)N2CCC(C(=O)NCc3ccco3)CC2)c2cc(C)ccc2O1 (stereo not given),-27.9,-6.6%,.,-1.4%&-2.6%,-4.2%,21.3%,-8.9&7.6
CCCn1cc(S(=O)(=O)c2ccc(OC)cc2)c(=O)c2cc(OC)ccc21,-3.4,4.7%,3.6,-29.4%,-36.6%,11.3%,11.2
O=C(NC(Cc1ccccc1)c1nc2ccccc2[nH]1)c1ccc(Cl)c([N+](=O)[O-])c1 (stereo not given),-5.9,-17.1%,0.7,.,-4.6%[15.4 µM],18.7%,0.3
CCCn1c(SCC(=O)NCC(=O)Nc2ccc(F)c(F)c2F)nc2ccccc2c1=O,-3.7,-1.2%,.,-3.4%,-3.9%,.,22.0
O=C(NCC(=O)N1CCCC(C(F)(F)F)C1)c1ccco1 (stereo not given),16.2,8.3%,.,-0.7%,2.7%,.,17.1
O=C(O)c1ccccc1SCc1csc(-c2ccccc2)n1,-7.5,-10.9%,.,.,?,6.0%,34.6
Cc1cccc(-n2ccc(=O)c(C(=O)O)n2)c1,1.1,11.2%,6.8,.,-15.2%,9.5%,41.8
O=C(O)c1cccc(NC(=O)c2ccccc2)c1,.,8.6%,.,-0.1%,8.9%,.,.
CCOC(=O)C(CC(=O)Nc1nc(C(C)=O)c(C)s1)C(C)c1ccccc1 (stereo not given),10.3,-9.9%,-1.2,.,?,-12.4%,27.0
O=C(CC1C(=O)NCCN1Cc1cccc(F)c1)NCCCOc1cccnc1 (stereo not given),3.6,12.1%,-14.2,-4.7%,?,24.1%,48.8
Cc1nc2sccn2c(=O)c1S(=O)(=O)Nc1ccc(N2CCN(C)CC2)cc1,14.5,2.6%,-5.0,2.6%&0.4%,6.1%,-0.7%,-4.5&-4.1
COc1ccc(Cc2noc(-c3ccc(OC)c(OC)c3)n2)cc1OC,3.5,-14.4%,1.6,-12.2%,18.4%,-1.3%,30.9
O=C(O)[C@H]1CCCC[C@H]1C(=O)Nc1ccc(Nc2ccccc2)cc1,6.2,-4.7%,1.5,-1.8%,1.4%,3.2%,2.4
CCN(Cc1nc2ccccc2n1C)c1ccccc1,-34.1,-8.8%,4.0,.,-40.1%[inhibitor],4.9%,1.9
CCN1CCc2nc(SCC(=O)Nc3ccc(OC)cc3)c(C#N)cc2C1,6.6,3.9%,1.6,-11.7%,?,-1.1%,10.1
CCOC(=O)C1=C(O)/C(=C/c2ccc(-c3ccccc3C(=O)O)o2)SC1=Nc1ccc(OC)cc1,0.3,-4.8%,?,-0.6%,-25.8%,-18.9%,-1.0
COc1cccc2c(=O)n(CC(=O)Nc3cccc(F)c3)ccc12,-15.2,5.8%,0.4,-14.6%,?,3.6%,-11.5
O=C(NCc1ccc(F)cc1)C(Cc1ccccc1)NS(=O)(=O)c1cccs1 (stereo not given),6.4,-6.4%,-0.6,-0.6%,?,6.1%,-4.1
CCCCOc1ccc(OC(=O)c2cccnc2)cc1,1.3,-2.1%,-1.5,0.3%,-4.6%,9.4%,-16.1
Cc1ccc(C(=O)NCC(=O)OCC(=O)NC2CCCCCCC2)cc1,-25.5,0.9%,.,0.6%,2.6%,15.7%,24.3
COc1cccc(C2(O)CCN(C(=O)C3CCC3)CC2)c1,13.6,6.6%,3.9,0.4%,-3.1%,12.4%,-10.3
CC(=O)N1CC=CC1(C)C(=O)O (stereo not given),7.1,6.9%,1.6&-0.3,-0.7%,-20.2%,26.4%&16.4%,2.2
CC(NC(=O)C1CCN(C(=O)c2cccs2)CC1)c1ccc(S(N)(=O)=O)cc1 (stereo not given),9.8,5.5%,.,-0.8%,-25.5%,.,16.8
COc1ccccc1NC(=O)c1ccc(NC(=O)CSc2n[nH]c(N)n2)cc1,-4.9,5.4%,4.9,0.9%,?,21.6%,9.6
Cc1cc(C)n(CCC(=O)Nc2cccc(F)c2)n1,-8.9,-7.8%,3.2,-2.7%,0.5%,6.6%,19.0
O=C(Nc1cccnc1Cl)c1cccc(F)c1,-8.5,.,-6.1,.,.,7.3%,.
CCC(c1nnc(SCC(=O)Nc2cccc(S(N)(=O)=O)c2)n1-c1ccc(OC)cc1)N(C)C (stereo not given),1.6,5.0%,-1.0,.,3.9%,5.6%,10.4

# Screens (PubChem BioAssay)
